Sa growth 42C = blocks Staphylococcus aureus growth; S. aureus RN4220 growth, OD600, 20 h, 42 °C; active compounds read low; relative growth, % (test concentration not listed); 0.53% of 170,000 active; AID 720641;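 active means growth at 42 °C up to 50% and 20 or more points under that at 30 °C, or under 10% at both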;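 further: 300 nL library stock went into each well; scaled to the means of positive and negative controls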
HCMV NEC inh = cytomegalovirus nuclear egress complex inhibition; AID 1918969; inhibition, % (concentration not given with the values); 0.15% of 190,000 active; HTRF UL50-UL53 interaction, normalized percent inhibition;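 active means both replicates at 50% or more, plus weaker picks with an unusually low signal ratio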;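 further: stock transfer was 100 nL into about 20 µL; 0% = negative control wells and 100% = wells with untagged competitor protein; inactives centre near -12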
GIV-Gai inh = GIV-Galpha-i interaction inhibition; P08753; Galpha-i3/FITC-GIV peptide fluorescence polarization, 90 min; active compounds read low; scaled: aluminum fluoride 0%, vehicle 100%; percent of control (FP), % (no concentration beside the values); 0.42% of 210,000 active;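 active means replicate mean at 85% of control or lower, very high polarization wells dropped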;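 further: wells of about 15 µL received 100 nL stock; the first replicate is given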
Target sequence (P08753 whole entry, looked up): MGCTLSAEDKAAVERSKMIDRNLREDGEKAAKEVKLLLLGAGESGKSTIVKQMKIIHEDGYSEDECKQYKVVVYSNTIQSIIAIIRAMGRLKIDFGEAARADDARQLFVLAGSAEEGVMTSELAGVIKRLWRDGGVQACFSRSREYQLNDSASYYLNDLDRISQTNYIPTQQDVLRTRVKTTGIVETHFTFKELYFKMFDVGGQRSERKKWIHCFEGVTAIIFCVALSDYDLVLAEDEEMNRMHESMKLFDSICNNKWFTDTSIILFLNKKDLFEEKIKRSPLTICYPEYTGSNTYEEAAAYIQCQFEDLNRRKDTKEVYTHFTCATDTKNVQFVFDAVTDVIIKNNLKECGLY
Sa growth 42C second temp = recorded beside Sa growth 42C, whose call it bears; relative growth, %; measured here: growth at 30 °C;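 optical density after 20 h as mean of two plates; 100% = untreated growth and lower means inhibition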
An asterisk follows results filed as active; nt = no result given.

Molecule	Sa growth 42C	Sa growth 42C second temp	HCMV NEC inh	GIV-Gai inh
O=C(O)c1cc(N2CCN(CC(=O)N3CCCC3)CC2)ccc1NC(=O)C1CCC1	nt	nt	-32	102
O=C(CCC1CCCC1)N1CCN(CC2CC=CCC2)CC1 (centres undefined)	93	91	0	nt
O=CNCCc1nc2ccccc2n1Cc1ccccc1	117	97	-31	110
CCCCN(CCCC)CCNC(=O)CN1C(=O)CSc2ccc(S(=O)(=O)N3CCCCC3)cc21	112	90	nt	97
O=C(CCn1nc(-c2ccccc2)c2ccccc2c1=O)Nc1ccccc1	113	92	-15	108
N/C(=N/c1nc2ccccc2o1)NC(=O)/C=C/c1ccccc1	104	87	nt	104
COC(=O)C1=C(C(F)(F)F)OC(C)=C(C#N)C1c1ccccc1-c1ccccc1 (centres undefined)	84	32	-4	nt
CCOc1ccc(S(=O)(=O)NCC(c2ccc(N(C)C)cc2)N2CCc3ccccc32)cc1 (centres undefined)	99	91	nt	102
COC(=O)c1cc2ccsc2n1CC(=O)NC1CCCC1	nt	nt	-15	102
CC(C)CSc1nnc(CSCc2nc(-c3ccc(Cl)cc3)cs2)n1C	84	44	-27	101
COc1ccc(-c2noc(CSCC(=O)Nc3cccc(C(F)(F)F)c3)n2)cc1OC	95	75	nt	109
O=C(O)Cc1sc(Nc2ccccc2Cl)nc1-c1ccccc1	115	88	-10	107
CCC(CO)Nc1ncnc2onc(C)c12 (centres undefined)	96	104	14	102
CCc1ccc(N2C(=O)C3N=NN(CCc4ccc(OC)cc4)C3C2=O)cc1 (centres undefined)	95	87	-17	108
CC1CCc2nc3ncn(Cc4ccccc4F)c(=O)c3cc2C1 (centres undefined)	81	89	nt	107
CC(C)NC(=O)C(C)n1c2ccccc2c2cn[nH]c(=O)c21 (centres undefined)	88	81	-15	101
O=C(O)CN1C(=O)/C(=C\c2cccc(Cl)c2Cl)SC1=S	nt	nt	-25	98
O=C(OCCN1C(=O)c2ccccc2C1=O)c1cc2ccccc2o1	136	102	-13	96
Clc1ccccc1-c1nnc2cccc(Cl)n12	98	82	-15	nt
Cn1nc(C(=O)NCc2ccccc2)c2c1CCN(C(=O)c1ccc(F)cc1)C2	nt	nt	-13	110

(next part)
Molecule	Sa growth 42C	Sa growth 42C second temp	HCMV NEC inh	GIV-Gai inh
CC(C)C(C(=O)Nc1ccc(S(=O)(=O)Nc2ncccn2)cc1)N1C(=O)c2ccccc2C1=O (centres undefined)	99	86	nt	101
Clc1ccc(-c2csnn2)cc1Cl	nt	nt	-13	102
CC(C)N(C(=O)Cn1c2ccccc2c2nc3ccccc3nc21)c1ccccc1	123	89	nt	105
COc1cc2nc(NCCc3cccc(C)c3)n3nc(-c4ccccc4)nc3c2cc1OC	111	94	8	109
Cc1ccc(SCC(=O)NN=C2CCN(C)CC2)cc1	88	86	-26	101
Cc1ccccc1NC(=O)C1CCN(c2ncnc3onc(C)c23)CC1	nt	nt	-1	103
O=S(=O)(c1ccc(-c2nnc(C3CC3)o2)s1)N1CCCCC1	nt	nt	-33	108
Cc1nn2c(C)c(C(=O)NC(C)(C)C)cnc2c1-c1ccc(F)cc1	97	97	nt	103
CN1CCC(N(C)C(=O)c2cc(Cl)cc(Cl)c2)CC1	67	92	11	nt
O=C(CSc1nc(=O)n(Cc2ccco2)c2c1CCC2)NCc1ccccc1	151	87	nt	105
O=c1[nH]c2ccc(NCC#Cc3ccccc3)cc2[nH]1	nt	nt	-13	100
O=C(OCC(=O)N(CC1CCCO1)c1nc(-c2ccc(Br)cc2)cs1)c1ccco1 (centres undefined)	90	91	-6	nt
CCOC(=O)c1sc2ncn3c(-c4ccc(C)cc4)nnc3c2c1C	116	92	nt	106
NC(=O)C[n+]1ccn2c(NC3CCCCC3)c(-c3ccc(N4CCOCC4)cc3)nc2c1	100	88	nt	301
CCc1c(O)c2ccccc2n(C)c1=O	108	96	2	101
CC(c1ccccc1)N1CCC(c2nc3ccccc3[nH]2)CC1 (centres undefined)	103	98	-2	111
CC(=O)N(CCC#N)c1ccccc1	92	90	-18	102
O=C(Nc1nc2n(n1)C(c1ccc(Cl)cc1)C=C(c1ccccc1)N2)c1ccco1 (centres undefined)	67	43	-36	-44*
O=C(Nc1ccc2nn(-c3cccc4ccccc34)nc2c1)c1ccc2c(c1)OCCO2	nt	nt	-16	97
Cc1cccc(-n2nnnc2S(C)(=O)=O)c1	-0.6*	-0.4*	nt	103

(continued)
Molecule	Sa growth 42C	Sa growth 42C second temp	HCMV NEC inh	GIV-Gai inh
O=C(Cc1csc(NC(=O)Nc2ccc(Cl)cc2)n1)NCc1ccco1	102	70	-35	105
COc1ccc(CCNC(=O)COc2ncnc3oc(C)c(C)c23)cc1OC	nt	nt	21	95
O=c1n(-c2ccc(F)cc2)nc2n1CCCN2	108	88	1	103
COC(=O)c1ccc(Cl)cc1NC(=O)Nc1nnc(N(C)Cc2ccccc2)s1	101	89	8	104
O=C(CN1C(=O)c2cccc3cccc1c23)NC1CCCC1	79	74	-38	100
O=C1CC(c2nc3ccccc3n2CC(O)COc2ccccc2Cl)CN1Cc1ccccc1 (centres undefined)	nt	nt	-12	109
O=C(/C=C/c1ccccc1Cl)Nc1ncn[nH]1	94	95	5	nt
Cc1sc2c(c1C)CSC(C(=O)NC(C)C)=C2	80	75	nt	99
O=C(Cc1cnn(-c2ccccc2)c1)c1ccc(O)c(O)c1O	75	58	-55	105
CCOC(=O)c1cn(CC(=O)Nc2cccc(C)c2C)c2nc(C)ccc2c1=O	nt	nt	-9	120
COc1ccc(C2Nc3ccccc3C(=O)N2c2ccc(C)cc2)cc1COc1ccccn1 (centres undefined)	nt	nt	9	107
CSc1ccc(S(=O)(=O)Nc2c(C)cc(OCC(=O)N3CCOCC3)cc2C)cc1	109	82	4	nt
CCCCNC(=O)C1CCN(Cc2cccc(OC)c2O)CC1	100	82	-2	104
COC(=O)c1c(C)oc2ccc(NS(=O)(=O)c3ccc(Cl)c([N+](=O)[O-])c3)cc12	nt	nt	-13	98
COC(=O)c1ccc(NC(=O)CC2C(=O)N(c3cccc(OC)c3)C(=O)N2Cc2cccc(OC)c2)cc1 (centres undefined)	114	89	nt	103
Cn1cc(NC(=O)N2CCc3ccccc3C2)c2ccccc21	77	81	-23	105
CN(C)C(=O)COC(=O)C1CCN(S(=O)(=O)c2ccccc2C(F)(F)F)CC1	83	89	-30	nt
Cc1cccc(CS(=O)(=O)Cc2ccc(C(=O)NCc3ccc(Cl)cc3)o2)c1	122	102	nt	106
O=C1NC(=S)NC(=O)C1=Cc1ccc(OCc2ccc(C(=O)O)cc2)c(Br)c1	nt	nt	-20	86
CCC(C)NC(=O)Nc1cccc(C)c1 (centres undefined)	115	94	-30	100

The list goes on:
Molecule	Sa growth 42C	Sa growth 42C second temp	HCMV NEC inh	GIV-Gai inh
COc1ccc(-c2ncccc2O)cc1	94	82	-61	nt
Cc1ccc(C)c(N2CCN(C(=O)C3CCCN3S(=O)(=O)c3cccc4nsnc34)CC2)c1 (centres undefined)	81	83	nt	105
O=C(NCSc1nc2ccccc2o1)C(F)(F)F	114	84	-3	nt
Oc1c(C(c2ccccc2Cl)N2CCOCC2)sc2nc(-c3ccco3)nn12 (centres undefined)	119	91	nt	101
CC(C)(C)NC(=O)C1N(C2CC2)C(=O)C2C(C(=O)NCc3ccccc3)C3C=CC21O3 (centres undefined)	111	97	-19	98
CC(NC=O)c1ccc(Br)cc1 (centres undefined)	96	89	-13	97
COc1ccc(NC(=O)C2(S(=O)(=O)c3ccc(C)cc3)CC2)c(OC)c1	93	94	1	101
O=C1CC(c2ccccc2)Cc2[nH]c(=O)c(C(=O)Nc3nc4ccccc4s3)cc21 (centres undefined)	nt	nt	-34	156
COc1ccc2cc3c(N)nn(C(=O)c4ccc(F)cc4)c3nc2c1	nt	nt	-56	97
O=C1CCCC(O)=C1N=Nc1cccc(C(=O)O)c1	88	63	-92	nt
CCOC(=O)CNc1cccc(C(=O)O)c1	102	87	-8	95
CC(C)(C)OC(=O)N1CCC(N2CCN(Cc3ccccc3)C(=O)C2=O)CC1	104	87	nt	103
O=S(=O)(c1ccccc1)c1nc(-c2cccs2)oc1NCCCn1ccnc1	111	98	-19	102
CCC(C)N(Cc1nc(N)nc(Nc2ccccc2C)n1)Cc1nc(N)nc(Nc2ccccc2C)n1 (centres undefined)	87	91	-10	nt
O=c1/c(=C/c2ccccn2)sc2n1CN(c1ccccc1)CN=2	119	84	nt	98
COc1ccc(S(=O)(=O)N(CC(=O)Nc2cccc(C(F)(F)F)c2)c2ccc(C)cc2)cc1OC	nt	nt	-4	100
CCOC(=O)c1cc(S(=O)(=O)N2CCCC2C(=O)Nc2ccc(NC(C)=O)cc2)cn1C (centres undefined)	nt	nt	-24	100
S=c1n(-c2ccccc2)cnn1CN1CCCCC1	91	64	-52	102
Cc1ccccc1-n1c(=O)cc(NCc2ccc3c(c2)OCO3)[nH]c1=O	116	80	4	100
CCOc1ccccc1N1CCN(C(=O)c2cc3c(C)cc(C)cc3[nH]2)CC1	88	89	-29	104

Some of the entries above, set out differently:
CCC(C)N(Cc1nc(N)nc(Nc2ccccc2C)n1)Cc1nc(N)nc(Nc2ccccc2C)n1 (centres undefined)
  Sa growth 42C: 87
  Sa growth 42C second temp: 91
  HCMV NEC inh: -10
  GIV-Gai inh: nt

O=c1/c(=C/c2ccccn2)sc2n1CN(c1ccccc1)CN=2
  Sa growth 42C: 119
  Sa growth 42C second temp: 84
  HCMV NEC inh: nt
  GIV-Gai inh: 98

COc1ccc(S(=O)(=O)N(CC(=O)Nc2cccc(C(F)(F)F)c2)c2ccc(C)cc2)cc1OC
  Sa growth 42C: nt
  Sa growth 42C second temp: nt
  HCMV NEC inh: -4
  GIV-Gai inh: 100

CCOC(=O)c1cc(S(=O)(=O)N2CCCC2C(=O)Nc2ccc(NC(C)=O)cc2)cn1C (centres undefined)
  Sa growth 42C: nt
  Sa growth 42C second temp: nt
  HCMV NEC inh: -24
  GIV-Gai inh: 100

Further compounds.
Molecule	Sa growth 42C	Sa growth 42C second temp	HCMV NEC inh	GIV-Gai inh
COc1ccccc1N1CCN(S(=O)(=O)c2ccc(-c3cc(C(F)(F)F)on3)s2)CC1	93	89	nt	102
Cc1cccc(NC(=S)N2CCC(NC(=O)c3ccco3)CC2)c1	81	100	-5	97
COC(=O)Cc1nc(N2CCN(Cc3ccc4c(c3)OCO4)CC2)c2c(C)c(C)sc2n1	nt	nt	-19	107
O=C(c1cc(=O)[nH]c2ccccc12)N1CCN(Cc2ccccc2)CC1	101	94	-9	nt
Cc1ccc(C2=NN3C(C2)c2cc(Br)ccc2OC3c2ccc(C(C)C)cc2)cc1 (centres undefined)	nt	nt	-9	105
CC(=O)n1sc2nc(C)cc(C)c2c1=O	89	89	29	99
O=C1C(Sc2ccccc2)=C/C(=N/S(=O)(=O)c2cccs2)c2ccccc21	0.0*	-0.1*	nt	95
N#C/C(=C/c1ccccc1Cl)c1nc(-c2cc3ccccc3oc2=O)cs1	96	96	-26	101
CC(C)(C)C(=O)NCc1ccc2c3c(cccc13)C(=O)N2	86	82	-90	nt
COC(=O)c1ccccc1NC(=O)C(C)N1c2cccc3cccc(c23)S1(=O)=O (centres undefined)	94	91	nt	98
CC1CCN(S(=O)(=O)N(C)C)CC1	93	85	-29	101
Cc1cc(NC(=O)c2ccc(N)cc2)c(N)cc1N	106	99	nt	106
CC(C)CC(=O)N(c1nnc(-c2cccnc2)s1)C1CCCC1	102	74	-2	103
CS(=O)(=O)N1CCN(c2ccc(NC(=O)CSc3nnc(Cc4ccccc4)o3)cc2)CC1	95	101	-4	104
O=C(CC1S/C(=N/N=C2\CSC(=O)N2)NC1=O)Nc1ccccc1 (centres undefined)	96	93	-23	106
CSc1nc2c(c(=O)[nH]1)C(c1ccc(F)cc1F)CC(=O)N2 (centres undefined)	102	89	-20	96
CCCCN1C(=O)CS/C1=C(/C#N)C(=O)Nc1cccc(OC)c1	88	87	-29	nt
COc1ccc(C(C)=O)cc1CSc1nc(NCCc2ccccc2)c2ccccc2n1	91	81	nt	102
CC(C)(C)c1cc(C(F)(F)F)nc(SCCNC(=O)c2cnn3cccnc23)n1	97	92	-25	101
CSc1nnc(SCCS(=O)(=O)c2ccc(Cl)cc2)s1	108	70	8	103

Complete entries as entered above:
`COc1ccc(C(C)=O)cc1CSc1nc(NCCc2ccccc2)c2ccccc2n1` is listed as Sa growth 42C = 91; Sa growth 42C second temp = 81; HCMV NEC inh = nt; GIV-Gai inh = 102
`CC(C)CC(=O)N(c1nnc(-c2cccnc2)s1)C1CCCC1` is listed as Sa growth 42C = 102; Sa growth 42C second temp = 74; HCMV NEC inh = -2; GIV-Gai inh = 103

Next section
Molecule	Sa growth 42C	Sa growth 42C second temp	HCMV NEC inh	GIV-Gai inh
CC(C)(C)N1CC(C(=O)O)CC1=O (centres undefined)	98	88	nt	101
CCC(c1nnc(SCC(=O)N2CCOCC2)o1)N(C)C (centres undefined)	83	88	-32	nt
CCOc1ccc(NC(=O)Cn2nc(SC)c(S(=O)(=O)c3ccccc3)c2N)cc1	85	86	nt	99
CC(C)N1C(=O)c2ccccc2CC1(C)C(=O)NC1CCCCCC1 (centres undefined)	91	89	3	95
O=C(CCN1C(=O)NC2(CCCC2)C1=O)Nc1ccc(S(=O)(=O)N2CCCCC2)cc1	73	87	-27	nt
CCCCNC(=O)c1cccc2c1C(=O)N(CCC)C2	86	87	0	108

Screens: PubChem BioAssay, ICCB-Longwood Screening Facility, Harvard Medical School

Rows were taken by chance (roughly 0.82% active in at least one column).
